High-throughput results (PubChem BioAssay)
KCNQ2 block: KCNQ2 potassium channel inhibitors, primary screen, cell-based, CHO-K1, FluxOR thallium flux, B-score (AID 2156); 20 min; active compounds read low; only compounds with negative scores are shown here; some inactives read as strong as hits; hit rate 1.1% among 310,000; B-score at 10 µM;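 active means fluorescence ratio B-score at most minus 3 library SDs, with starting brightness B-score within 2 library SDs, cut at about -5.5 in these data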
Target sequence (O88943 whole entry, looked up): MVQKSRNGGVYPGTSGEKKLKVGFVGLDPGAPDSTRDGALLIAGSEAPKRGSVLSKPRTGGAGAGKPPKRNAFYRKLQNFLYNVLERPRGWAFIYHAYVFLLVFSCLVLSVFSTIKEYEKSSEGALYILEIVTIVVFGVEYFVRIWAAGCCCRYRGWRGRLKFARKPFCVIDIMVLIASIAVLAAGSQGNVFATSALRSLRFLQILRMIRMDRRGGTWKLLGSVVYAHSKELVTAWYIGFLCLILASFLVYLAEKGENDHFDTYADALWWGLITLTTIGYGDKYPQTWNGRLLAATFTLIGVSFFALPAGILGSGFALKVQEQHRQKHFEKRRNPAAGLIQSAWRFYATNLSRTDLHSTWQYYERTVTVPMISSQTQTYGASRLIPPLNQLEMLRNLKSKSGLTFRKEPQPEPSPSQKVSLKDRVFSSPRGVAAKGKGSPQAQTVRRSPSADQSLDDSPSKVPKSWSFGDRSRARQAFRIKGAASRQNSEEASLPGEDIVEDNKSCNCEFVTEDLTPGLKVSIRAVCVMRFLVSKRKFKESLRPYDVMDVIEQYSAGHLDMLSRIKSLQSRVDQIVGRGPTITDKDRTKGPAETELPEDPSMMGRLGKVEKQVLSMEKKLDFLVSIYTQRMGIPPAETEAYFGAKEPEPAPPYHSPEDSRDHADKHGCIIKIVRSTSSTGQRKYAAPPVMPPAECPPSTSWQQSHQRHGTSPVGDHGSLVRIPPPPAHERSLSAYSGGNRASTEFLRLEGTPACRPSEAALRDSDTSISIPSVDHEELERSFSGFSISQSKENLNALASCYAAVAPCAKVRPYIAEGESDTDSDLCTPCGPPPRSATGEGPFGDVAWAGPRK
KCNQ2 block baseline: further read-out of KCNQ2 block, marked with its call; B-score; measured here: initial fluorescence intensity artifact check;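 brightness before thallium and not channel activity; 0 = typical well and far values either way flag optical interference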
Numbers without * were called inactive; i = inactive. An excerpt; the hit share may differ from the screen's.

smiles | KCNQ2 block baseline | KCNQ2 block
COc1ccc(C(=O)Nc2cc(OC)c(NC(=O)c3ccco3)cc2OC)cc1 | 0.81 | i
COCCCNC(=O)CN1CCN(Cc2ccc(Cl)cc2)C1=O | -5.4 | i
CC(C)CC(NC(=O)OC(C)(C)C)C(=O)NC(C(=O)NC(C)C(N)=O)C(C)C (stereo not given) | 1.3 | i
CC(C)Cn1c(N)c(C(=O)COC(=O)Cc2cccs2)c(=O)n(C)c1=O | -0.02 | i
CC1CCCCN1C(=O)/C(=C\c1ccccc1)c1ccccc1 (stereo not given) | -0.16 | i
N#C/C(=C\C=C\c1ccccc1[N+](=O)[O-])C(=O)NCc1ccccc1 | 2.4 | i
Cc1ccc(Nc2nc(C(=O)NCc3ccco3)cs2)cc1 | 0.83 | i
CCCCC1CCC(c2nc(-c3cccnc3)no2)CC1 (stereo not given) | 0.28 | i
CC(C)(C)C(=O)Nc1cccc2[nH]ncc12 | 1.2 | i
O=C(COC(=O)c1ccccc1O)NCCC1=CCCCC1 | 1.3 | i

Next results:
smiles | KCNQ2 block baseline | KCNQ2 block
Cc1cc(NC(=O)c2ccc(Cl)cc2)c(C(C)C)cc1O | -4.6 | i
O=c1[nH]c2ccccc2cc1CN(Cc1ccco1)S(=O)(=O)c1ccc(F)cc1 | -0.68 | i
Cc1ccnc(NC(=O)CNC(=O)C23CC4CC(CC(C4)C2)C3)c1 | -1.6 | i
CCC(C)NC(=O)/C=C/c1ccc(S(=O)(=O)NCc2ccco2)cc1 (stereo not given) | -4.2 | i
O=C(Cn1c(=O)n(Cc2ccco2)c(=O)c2c3c(sc21)CCCCC3)c1ccccc1 | -0.87* | -5.7*
CCOC(=O)C1CCN(C(=O)c2cc3c(ccc4ccccc43)o2)CC1 | 0.83 | i
COc1ccc(-c2csc(N(Cc3ccco3)C(=O)c3cccs3)n2)cc1 | -0.59* | -6*
CC1(C)CC(NC(=S)Nc2ccc([N+](=O)[O-])cc2)CC(C)(C)N1 | -0.05 | i
CCCN1Cc2cccc(C(=O)NCc3cccs3)c2C1=O | -0.06 | i
COc1cc(/C=C2\SC(=S)N(CC(=O)O)C2=O)ccc1OC(=O)c1ccco1 | -0.45 | i

Continuation.
smiles | KCNQ2 block baseline | KCNQ2 block
CCN(CC)CC(=O)NC1CC(C)(C)Cc2c1cnn2-c1ccc(F)cc1 (stereo not given) | -0.01 | i
CCn1c(SCC(=O)c2ccccc2)nnc1-c1ccoc1C | -1.1 | i
Cc1ccc2nc(/C(C#N)=C\c3cc(C)n(-c4cccc([N+](=O)[O-])c4)c3C)[nH]c2c1 | 2.8 | i
Cc1cccc(N2CCN(S(=O)(=O)c3c(C)[nH]c(C)c3C(=O)N3CCCCC3)CC2)c1C | 1.3* | -5.9*
S=C(Nc1ccccc1)N1CCN(C2CCCCC2)CC1 | 0.04 | i
O=C(Nc1ccc(N2CCN(C(=O)c3cccs3)CC2)cc1)c1ccc(F)cc1 | -1.5 | i
O=C(NCCCSc1ccccc1)c1cccnc1 | 0.23 | i
CCn1cc(C2=NC(c3ccccc3)CO2)c2ccccc21 (stereo not given) | 0.85* | -5.7*
Cc1ccc(CSCCNC(=O)CSc2ccccc2)cc1 | 0.05 | i
CCOc1ccc2nc(NC3=NC(c4ccc(OC)cc4)CC(=O)N3)nc(C)c2c1 (stereo not given) | 0.2 | i

Later entries.
smiles | KCNQ2 block baseline | KCNQ2 block
CN(CC1CCOCC1)C(=O)CC1C(=O)NCCN1Cc1ccccc1F (stereo not given) | -0.99 | i
COc1ccccc1N/C(=N/S(=O)(=O)c1ccc(Cl)cc1)c1ccccc1 | 0.05 | i
O=C(c1cc2ccccn2n1)N1CCN(c2cccc(C(F)(F)F)c2)CC1 | -0.01 | i
CCCCNC(=O)C1CCN(S(=O)(=O)N2CCOCC2)CC1 | -0.59 | i
CN(C(=O)c1nn(C)c2c1CSc1ccccc1-2)c1ccccc1Cl | 1.5* | -6.7*
CCOc1ccc(NC(=O)CN2CCN(CC(=O)Nc3ccc(C(=O)OC)cc3)CC2)cc1 | -0.02 | i
COC(=O)c1cscc1NC(C)=O | -0.65 | i
CCC(=O)n1nc(-c2ccc(Cl)cc2)nc1SC | -0.77 | i
COC1CCN(C(=O)CC2C(=O)NCCN2CC(C)(C)C)CC1 (stereo not given) | 0.14 | i
Cc1cc(C(=O)N2CCC(C)CC2)on1 | 2.2 | i

Additional results follow:
smiles | KCNQ2 block baseline | KCNQ2 block
Cc1ccccc1Oc1ccccc1N | -0.15 | i
CCC1CCc2sc(C(=O)NC3CCN(Cc4ccccc4)CC3)cc2C1 (stereo not given) | 0.27 | i
C=CCNC(=O)c1c(CSc2ccc(Cl)cc2)noc1C(=O)NCCC | 0.47 | i
CCCCn1c(CNC(=O)Cc2ccccc2)nc2ccccc21 | 0.02 | i
Cc1ccccc1-c1nc2ccccc2[nH]1 | 0.01 | i
COc1ccccc1C(=O)Oc1ccc(C(C)C)cc1 | -0.5 | i
CCNC(=S)Nc1ccc(Cl)c([N+](=O)[O-])c1 | 0.37 | i
CCOC(=O)C1=C(Nc2cccc(Cl)c2)OCC1=O | 1.5 | i
COC(=O)CNC(=O)Cc1c(C)n(C(=O)c2ccc(Cl)cc2)c2ccc(OC)cc12 | -0.26 | i
CCOc1ncccc1C(=O)Nc1ccc(F)cc1 | 1.3 | i

5 compounds already listed, ordered by SMILES length, ascending.
smiles | KCNQ2 block baseline | KCNQ2 block
Cc1ccccc1Oc1ccccc1N | -0.15 | i
Cc1ccccc1-c1nc2ccccc2[nH]1 | 0.01 | i
CCNC(=S)Nc1ccc(Cl)c([N+](=O)[O-])c1 | 0.37 | i
C=CCNC(=O)c1c(CSc2ccc(Cl)cc2)noc1C(=O)NCCC | 0.47 | i
COC(=O)CNC(=O)Cc1c(C)n(C(=O)c2ccc(Cl)cc2)c2ccc(OC)cc12 | -0.26 | i

(list continues)
smiles | KCNQ2 block baseline | KCNQ2 block
Cc1c(OCC(=O)NC(Cc2ccc(Cl)cc2)C(=O)O)ccc2c1oc(=O)c1ccccc12 (stereo not given) | -2.2 | i
CN1/C(=C\C(=O)c2oc3ccccc3c2N)C(C)(C)c2ccccc21 | 0.29 | i
CCn1cc(CCCC(=O)NCc2cccc(OC)c2)c2ccccc21 | -0.64 | i
O=C(Cc1ccccc1)N1CCN(S(=O)(=O)c2ccc([N+](=O)[O-])cc2)CC1 | 0.24 | i
COc1ccc(N2C(=O)CC(N(CCc3ccccc3)C(=O)/C=C/C(=O)O)C2=O)cc1 (stereo not given) | 0.87 | i
CC(=O)N(Cc1cc(=O)[nH]c2ccccc12)c1ccc(C)cc1 | 7.3 | i
O=C(CNC(=O)c1ccco1)NCC(=O)OCc1ccc(Cl)cc1Cl | -0.19 | i
Cc1cccn2cc(CCNS(=O)(=O)c3cccc([N+](=O)[O-])c3)nc12 | 0.74 | i
CCn1c(SCC(=O)O)nnc1-c1ccccc1 | 5.2 | i
COC(/C=C/Nc1ccc(Br)cc1)=C(C#N)C#N | 3.1 | i

(listing goes on)
smiles | KCNQ2 block baseline | KCNQ2 block
COc1ccccc1-c1nnc2sc(COc3ccccc3)nn12 | 1.9 | i
COc1ccc(CCNC(=O)CN2C(=O)COc3ccc(S(=O)(=O)N4CCOCC4)cc32)cc1OC | 0.35 | i
O=C(O)c1ccc(NC2=C(Cl)C(=O)c3ccccc3C2=O)cc1 | -7* | -10*
CN(C(=S)SCc1ccccc1)C1CCS(=O)(=O)C1 (stereo not given) | 1.7 | i
O=c1c2ccccc2c(-c2ccccc2)nn1Cc1ccc(Cl)cc1 | 1.3 | i
CCOC(=O)c1ccc(NC(=O)c2nc[nH]c2C(=O)N(C)Cc2ccccc2)cc1 | 1.3 | i
CN(Cc1ccccc1)C(=O)[C@H]1CCC(=O)N1Cc1ccco1 | 0.42 | i
CC(C)NC(=O)CSc1nnc(-c2ccc(C(C)(C)C)cc2)n1C | -0.16 | i
COc1cccc(OCCCOc2ccccc2C(C)C)c1 | -1.8 | i
CCOc1ccc(NC(=NCc2ccc3c(c2)OCO3)SC2CC(=O)N(c3ccc(C(=O)O)cc3)C2=O)cc1 (stereo not given) | -0.74 | i

Next records:
smiles | KCNQ2 block baseline | KCNQ2 block
Clc1ccc2nc(-c3cccc(SC4CCCCC4)c3)c(NCc3ccccc3)n2c1 | -0.12 | i
Cc1cc(OC(C)C(=O)NCCc2c[nH]c3ccccc23)c2c(C)cc(=O)oc2c1 (stereo not given) | -0.09 | i
c1coc(-c2nc(-c3ccco3)c(-c3ccco3)nc2-c2ccco2)c1 | 0.37 | i
O=C(Nc1ccccc1Oc1ccccc1)c1cccs1 | -1.1 | i
Cc1cccc2c1OCC/C2=N\NC(=O)COc1ccccc1 | -0.21* | -7.3*
COc1ccccc1CC(=O)Nc1ccc2c(C)cc(=O)oc2c1 | 0.32 | i
COc1ccc(CCN(C)C(=O)CNC(=O)Cc2cccc3ccccc23)cc1OC | -0.87 | i
CC(C)Cc1nc2c(nnn2Cc2ccccc2F)c(=O)[nH]1 | 0.34 | i
C=CCn1c(SCC(=O)c2ccc(F)cc2)nnc1-c1ccc2c(c1)OCO2 | -0.58 | i
CCOc1cc(C(=O)Nc2ccc(N3CCN(S(C)(=O)=O)CC3)cc2)cc(OCC)c1OCC | -1.8 | i

Remaining list, next part.
smiles | KCNQ2 block baseline | KCNQ2 block
N=c1oc2ccccc2cc1C(=O)Nc1cccc(F)c1 | 0.77 | i
CC(C)OCCCN1CN(S(=O)(=O)c2cccs2)c2nc3ccccc3nc21 | 0.08 | i
COC(=O)C1CN(C(=O)COc2cc(C)c(Cl)c(C)c2)c2ccccc2O1 (stereo not given) | 0.18 | i
CC(C)n1cc(/C=C2/NC(=O)N(c3cccc(Cl)c3)C2=O)c2ccccc21 | -0.14 | i
CC1CCCN(C(=O)c2ccc(S(=O)(=O)N3CCC(c4nc5ccccc5s4)CC3)cc2)C1 (stereo not given) | 1.2 | i
CC(=O)N1c2ccc(S(=O)(=O)N3CCC(C(=O)NCc4ccccc4Cl)CC3)cc2CC1C (stereo not given) | -0.26 | i
COc1ccc(N2CCN(C(=O)COC(=O)CCOc3cc(C)ccc3C)CC2)cc1 | 0.63 | i
Oc1ccc(CN2CCN(c3ncccn3)CC2)cc1 | 1.5 | i
COc1ccc(C2CC2/C(C)=N/OC(=O)C2CC2)cc1 (stereo not given) | -2 | i
CCc1ccc(NC(=O)CSc2nc3ccccc3nc2N2CCCC2)cc1 | 2.1 | i

Additional results.
smiles | KCNQ2 block baseline | KCNQ2 block
NS(=O)(=O)c1ccc(N=NN2CCCCC2)cc1 | 1.7 | i
Cc1ccc(C(=O)NCCN2C3=NC[C@H](C(C)C)N3C[C@H]2Cc2ccc(O)cc2)cc1Br | 0.08 | i
Cc1cc(C2=NNC(=NC3CC3)SC2)c(C)n1-c1ccccc1 | -0.76 | i
N#C/C(=C\c1ccccc1)C(=O)OCC(=O)N1CCCC1 | 2.1 | i
COc1ccccc1CNC(=O)COC(=O)Cc1ccsc1 | 0.98 | i
O=C(O)Cc1sc(Nc2ccc(Cl)cc2)nc1-c1cccs1 | 3.4 | i
Cc1ccc(C)c(N2CCN(C(=O)Cn3c(=O)[nH]c4ccsc4c3=O)CC2)c1 | -0.63 | i
Cc1ccc(S(=O)(=O)NC(Cc2ccccc2)C(=O)NN)cc1 (stereo not given) | -0.81 | i
CCOC(=O)c1c(C)[nH]c(C(=O)CSc2nc3ccccc3o2)c1C | -1.5 | i
Cc1cc(C)c(C)c(S(=O)(=O)NCc2ccco2)c1C | 0.32 | i

The list continues:
smiles | KCNQ2 block baseline | KCNQ2 block
N#CC1=C(SCC(=O)Nc2ccccc2)NC(=O)CC1c1ccc(O)cc1 (stereo not given) | 2.1 | i
CC(=O)Nc1ccc(OCC(=O)NCCc2ccc(Cl)cc2)cc1 | 0.61 | i
Cc1nc(N2CCC(C)CC2)c2c(C)c(C(=O)Nc3ccc(C(F)(F)F)cc3)sc2n1 | 0.52 | i
Cc1ccc(-n2cccn2)c(CN2CCCC(C(=O)c3ccc4c(c3)OCO4)C2)c1 (stereo not given) | -0.05 | i
Cc1ccc(CNCC(O)(c2ccc(F)cc2)c2ccc(F)cc2)cc1 | -2.3 | i
COc1ccc(-c2nc(CSCC(=O)NC3CCCc4ccccc43)c(C)o2)cc1 (stereo not given) | -0.83* | -7.3*
O=C(CNC(=O)c1ccco1)N/N=C/c1ccc(O)cc1O | -0.01 | i
COc1ccc(C(CC(=O)Nc2ccccc2OC)n2cccc2)cc1 (stereo not given) | 0.25 | i
COc1ccc2c(Cl)c(C(=O)N/N=C/c3c(C)[nH]c4ccccc34)sc2c1 | -0.63 | i
CC1(C)C2CCC1(CS(=O)(=O)Nc1cccc(S(N)(=O)=O)c1)C(=O)C2 (stereo not given) | -2.8 | i

The listing continues.
smiles | KCNQ2 block baseline | KCNQ2 block
COc1ccc(-c2n[nH]c(=S)n2/N=C/C=C/c2ccccc2OC)cc1 | 0.8 | i
CCOc1ccccc1NC(=O)C(OC(=O)c1cnccn1)c1ccccc1 (stereo not given) | 0.56 | i
N#CC(c1ccc(Cl)nn1)c1ccc(Cl)cc1Cl (stereo not given) | -0.91 | i
Cc1ccc2c(c1)COc1c3ccc(C(=O)N[C@@H](C)CO)cc3nn1-2 | 2.1 | i
CCCn1cnnc1CNC(=O)C1CCC(=O)N(CCc2cccc(F)c2)C1 (stereo not given) | 0.03 | i
COC1=CCC2([N+](=O)[O-])CN(CC(=O)O)CC1([N+](=O)[O-])C2 (stereo not given) | -0.17 | i
FC(F)Oc1ccc(NC(=S)Nn2cnnc2)cc1 | -0.14 | i

Record cards, from the list above. Order of screens: KCNQ2 block baseline, KCNQ2 block
Record of CCOc1ccccc1NC(=O)C(OC(=O)c1cnccn1)c1ccccc1 (stereo not given) = 0.56, i
Record of N#CC(c1ccc(Cl)nn1)c1ccc(Cl)cc1Cl (stereo not given) = -0.91, i
Record of CCCn1cnnc1CNC(=O)C1CCC(=O)N(CCc2cccc(F)c2)C1 (stereo not given) = 0.03, i
